T cruzi repl = inhibitors of intracellular T. cruzi growth, primary screen, luminescence, NIH3T3 host cells; T. cruzi beta-gal in NIH3T3, 90 h; 1.4% of 300,000 active; inhibition, % (test concentration not listed);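 active = mean inhibition across valid replicates above about 55%, limit read from the data; inconclusive = mean below that limit but half or more replicates reach it; inactive = mean below it, under half of replicates reach it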;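 also: signal also drops with host cell toxicity which is not excluded here; 0% = plate median of DMSO wells and 100% = zero luminescence signal; higher percent means less beta-gal luminescence so fewer parasites; stock transfer was 50 nL into about 50 µL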
Beta cell apopt = inhibitors of cytokine-induced beta cell apoptosis, primary screen, luminescence; INS-1E cytokine-induced death, ATP luminescence, 48 h; percent of positive-control rescue, neutral wells zero; protection from apoptosis, % (concentration not given with the values); 0.8% of 300,000 active;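 active = all replicates at 75% or more, or half of them and the mean; inconclusive = half reach 75% but not the mean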;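 also: 0% = cytokine-treated negative control wells and 100% = positive control rescue; higher means more ATP so stronger rescue from cytokine killing; wells of about 40 µL received 100 nL stock; the first replicate is given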
MLL AF4-AF9 inh = inhibitors of AF4 peptide binding to AF9, primary screen, biochemical, AlphaScreen, biotin-AF4 peptide, FLAG-AF9, single point. inhibition, % at 10 µM. 0.47% of 350,000 active. AID 651704, 2012;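 active = every replicate reaching a set inhibition limit, whatever the replicate mean, cut at about 25% in these data; inconclusive = mean inhibition reaches that limit but some replicates miss it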;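 also: 0% = plate neutral control median and 100% = total signal loss; the record names both 10 and 1 µM as test concentration; the first replicate is given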
Target sequence (P42568 whole entry, looked up): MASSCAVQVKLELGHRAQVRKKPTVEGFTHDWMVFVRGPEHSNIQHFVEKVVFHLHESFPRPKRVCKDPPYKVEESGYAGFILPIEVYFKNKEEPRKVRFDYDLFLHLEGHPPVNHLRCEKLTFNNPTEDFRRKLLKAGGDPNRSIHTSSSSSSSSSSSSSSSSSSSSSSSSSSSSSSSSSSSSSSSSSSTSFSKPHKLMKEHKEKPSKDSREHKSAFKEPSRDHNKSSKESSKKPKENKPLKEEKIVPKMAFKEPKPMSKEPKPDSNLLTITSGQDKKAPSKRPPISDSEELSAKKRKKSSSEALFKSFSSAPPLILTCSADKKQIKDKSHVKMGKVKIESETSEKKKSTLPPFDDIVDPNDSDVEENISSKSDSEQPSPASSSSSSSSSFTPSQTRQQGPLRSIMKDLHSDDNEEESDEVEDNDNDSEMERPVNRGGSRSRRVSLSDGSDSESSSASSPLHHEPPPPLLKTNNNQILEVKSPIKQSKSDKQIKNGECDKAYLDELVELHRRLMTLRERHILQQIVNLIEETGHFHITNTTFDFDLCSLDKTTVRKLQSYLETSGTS
RanGTP-Imp inh = inhibitors of RanGTP-importin-beta interaction, primary screen, biochemical, FRET, CFP-Ran, YFP-importin-beta, homogeneous; Ran GTPase (GTP-bound) - importin-beta complex; cell-free CFP-Ran/YFP-importin-beta FRET ratio; inhibition, % (no concentration beside the values); 1.1% of 300,000 active;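 active = most replicates above 15%; inconclusive = exactly half above 15%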;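 also: 0% = DMSO wells and 100% = Ran loaded with GDP instead of GTP; wells of about 40 µL received 100 nL stock; the first replicate is given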
Vif A3G = inhibitors of Vif binding to APOBEC3G peptide, primary screen, biochemical, TR-FRET, GST-Vif 1-94, biotin-A3G peptide, dose response retest (AID 1117319) | Virion infectivity factor (Human immunodeficiency virus type 1 group M subtype B (isolate … | inhibition, %; hits with a dose series show IC50 in µM | 0.57% of 260,000 active | TR-FRET GST-Vif / biotin-A3G peptide binding; higher % means a stronger effect; test concentration not given here; strong numbers were not always called active;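 active = above the screen mean plus three standard deviations and confirmed in dose response; inconclusive = results disagree or hit not tested in dose response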;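 also: Vif residues 1-94 fused to GST binding biotinylated APOBEC3G peptide 110-148; 0% = full assay without inhibitor and 100% = GST in place of GST-Vif; retest series ran down from 100 µM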
Bfl-1 A1 inh = caspase 3/7 activation in MEF A1-2A-BIM cells, primary screen, A1 inhibitor project, cell-based, luminescence, HTS. Caspase-Glo 3/7 luminescence, 3 h; percent of clofoctol response, vehicle zero. caspase activation, % (concentration not given with the values). 0.066% of 330,000 active. AID 2462, 2010;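 active = over half of replicate activation scores above 10%, or exactly half above 10 with the replicate mean above 10; inconclusive = replicate mean below 10 yet half the replicates above 10; inactive = over half of replicates below 10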;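 also: wells of about 30 µL received 50 nL stock; many hits fall short of the cut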
LANA-H2B inh = blockers of LANA interaction with H2A/H2B – biochemical, FP readout, HTS, primary screen; Protein LANA1 (Human herpesvirus 8 type P (isolate GK18)), Q9QR71; cell-free LANA-H2A/H2B peptide, fluorescence polarization; inhibition, % (concentration not given with the values); 0.6% of 320,000 active; AID 2629, 2010; in the data active = inhibition mostly above about 10%, no sharp cut-off; inactive = mostly below about 6.7%;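 also: stock transfer was 7.5 nL into about 10 µL; 0% = median of vehicle wells and 100% = median of positive control wells; one replicate is shown; the record names a cut of 25% in any replicate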
Calb FLC = C. albicans growth inhibition with fluconazole, primary screen, CaCi-2 strain, Alamar Blue fluorescence; C. albicans CaCi-2 (fluconazole-resistant clinical isolate) + fluconazole, 48 h; growth inhibition, % (no concentration beside the values); AID 1979, 2009; 0.57% of 300,000 active;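 active = most replicates above 75%; inconclusive = exactly half above 75%; inactive = most below 75%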;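 also: all wells also contain fluconazole at 8 µg/ml as a sub-toxic cotreatment; 0% = median of DMSO wells and 100% = median of geldanamycin control wells; wells of about 8 µL received 7.5 nL stock; the first replicate is given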
* hit, by the source's call; ? = inconclusive; nt = no result given; & = joins results of further samples.

Below each SMILES: T cruzi repl	Beta cell apopt	MLL AF4-AF9 inh	RanGTP-Imp inh	Vif A3G	Bfl-1 A1 inh	LANA-H2B inh	Calb FLC
COc1ccc(CCNC(=O)c2ccc(OCC(=O)N3CCOCC3)c(OC)c2)cc1
 : 6	nt	0.0	3.8	-4%	2.9	0.4	-14
NC(=O)CCN(C1CCCCC1)S(=O)(=O)c1cccc2nsnc12
 : 11	-3	-1.2	1.7	nt	1.2	0.4	9
C[C@H](CO)N1C[C@H](C)[C@H](CN(C)CC2CCCCC2)Oc2ccc(NS(=O)(=O)c3ccc(F)cc3)cc2CC1=O
 : nt	1	0.8	nt	nt	-0.3	0.7	nt
O=C(COC(=O)CNC(=O)c1ccc(Cl)cc1Cl)NC1CCCCC1
 : 0	-5	-0.9	1.3	10%	-1.0	0.8	-4
O=C(CSc1nnc2ccccn12)NNC(=O)c1ccccc1F
 : nt	3	-5.6	nt	9%	0.0	-1.9	nt
CCCCOc1ccc(-c2cnc3ccccc3n2)cc1
 : -2	nt	nt	-1.8	nt	-6.8	-1.3	59
CCCCn1c(N)c(N(CC(C)C)C(=O)c2ccc(S(=O)(=O)N3CCC(C)CC3)cc2)c(=O)[nH]c1=O
 : -2	-2	1.6	2.7	-8%	0.4	4.9	-8
COc1ccccc1NC(=O)c1cccc(N2C(=O)C3C4C=CC(C4)C3C2=O)c1 (stereo not drawn)
 : -6	-1	0.6	2.0	15%	-0.8	-1.1	5
CC12CC(NC(=O)N1c1cccc(C(=O)N3CCN(c4ccccc4)CC3)c1)c1ccccc1O2 (stereo not drawn)
 : -1	-1	nt	-3.1	9%	-0.1	2.7	1
O=C(c1ccc(Cl)c([N+](=O)[O-])c1)N1CCN(S(=O)(=O)c2ccc(Cl)cc2)CC1
 : nt	-7	10.0	nt	-3%	0.6	-10	nt
COc1ccc(S(=O)(=O)N2Cc3ccccc3CC2C(=O)Nc2nccs2)cc1OC (stereo not drawn)
 : 8	8	nt	2.3	9%	0.4	2.6	0
CCCn1c(-c2ccc(OC)cc2)nc2nc3ccccc3nc21
 : 15	-2	nt	0.6	?	-0.1	0.5	18
Cc1cc(C)c2c(N)c(C(=O)N3CCN(c4ncccn4)CC3)sc2n1
 : -8	-3	nt	2.3	13%	0.9	0.1	-8
COc1ccc(-c2ccc3ccccc3n2)cc1
 : -10	5	-3.5	2.0	21%	-7.3	2.7	-32
Cc1ccc(C)c(N2CCN(C(=S)Nc3ccc4nc(N5CCOCC5)cc(C)c4c3)CC2)c1
 : 47	-2	nt	4.8	0%	-0.3	-9.9	-8
COc1ccc(CCCc2nnc(SCC(=O)Nc3nc(C)cs3)n2C)cc1
 : 0	-2	nt	-0.8	-9%	0.6	3.8	6
COc1ccc(C2=C(O)C(C)N(c3ccccc3)C2=N)cc1OC (stereo not drawn)
 : -15	0	nt	1.6	31%	-1.3	8.2	12
COc1ccc(N(CCCN2C(=O)c3cccc4cccc(c34)C2=O)C(=O)c2cccc(OC)c2)cc1
 : 21	-3	-4.3	-0.5	12%	0.2	-5.5	11
Cc1cc(C)nc(NS(=O)(=O)c2ccc(Br)s2)c1
 : -2	-5	1.7	-0.3	?	-0.5	-5.6	-2
CCC(COC)Oc1cc(NCc2ccccc2)c2ncn(C(C)C)c2c1 (stereo not drawn)
 : nt	21	14	nt	nt	0.2	-5.4	nt
Cc1ccc(Oc2c(C(N)=O)cc([N+](=O)[O-])cc2[N+](=O)[O-])cc1
 : 4	5	nt	1.2	nt	1.5	-6.2	-7
CSc1ccccc1NC(=O)CN(C)C(=O)Cn1c(=O)oc2ccccc21
 : 1	-1	1.7	0.7	-1%	0.7	-0.2	-2
Cc1ccc[n+](C2C(c3ccc([N+](=O)[O-])cc3)C(C#N)=C([S-])NC2(O)C2CC2)c1 (stereo not drawn)
 : 8	0	10	4.6	27%	0.3	4.7	16
CSc1ccc(CNc2nnnn2C)cc1
 : -6	-9	-1.1	0.2	-1%	-0.2	1.3	-1
COc1ccc(-c2nnc(SCC(=O)NCC3CCCO3)n2C)cc1 (stereo not drawn)
 : -8	2	-0.6	1.0	-5%	-0.2	-0.4	-13
COc1ccc(C)cc1-n1nnnc1SCC1CCCCO1 (stereo not drawn)
 : 13	4	nt	2.3	-1%	0.4	-8.3	-8
CC(C)OC(=O)c1cc(NC(=O)C2C3CCC(O3)C2C(=O)O)cc(C(=O)OC(C)C)c1 (stereo not drawn)
 : -10	-13	nt	5.4	1%	-0.4	0.9	4
Cc1ccc(NS(=O)(=O)c2cn(C)cn2)cc1
 : -9	2	nt	0.8	26%	-0.7	2.0	0
CCNc1nc(NCC)nc(C(=O)NN)n1
 : 3	-4	nt	?	-7%	-0.6	-0.5	10
O=C1C2C3C=CC(C3)C2C(=O)N1/N=C/c1ccc(-c2ccccc2[N+](=O)[O-])o1 (stereo not drawn)
 : -7	11	nt	4.8	nt	-0.2	-3.2	-1
CC(C)C(NS(=O)(=O)c1ccc2c(c1)OCCCO2)C(=O)O (stereo not drawn)
 : -6	-5	-7.8	1.1	10%	0.3	-5.8	-1
O=C1CCCCCN1C(=O)c1cccc(C(=O)N2CCCCCC2=O)c1
 : -15	3	nt	2.0	2%	-1.1	0.2	-23
COc1ccccc1NC(=O)NC1(C(=O)N2CCCCCC2)CCCCC1
 : -3	3	nt	-2.6	nt	0.3	-0.2	-6
O=C(O)CCC(=O)OCC1CCCO1 (stereo not drawn)
 : 17	0	nt	-1.8	-3%	0.2	6.8	-14
O=c1c2[nH]c3ccccc3c2ncn1CCN1CCNCC1
 : 10	-5	nt	-2.8	-4%	-0.9	-4.8	3
Cc1ccc(NS(=O)(=O)c2cc(C(=O)NCCSC3CCCCC3)ccc2C)cc1
 : 34	15	nt	5.5	3%	0.2	5.1	-23
Cn1nnnc1SCC(=O)N1c2ccccc2Sc2ccccc21
 : 12	0	nt	0.7	?	1.1	3.1	12
COc1cccc(CNC(=O)c2cccs2)c1
 : -6	-2	1.1	0.3	-5%	-0.1	-1.3	0
O=C1NCCOC(=O)[C@@H](Cc2ccc(F)cc2)CC/C=C/C[C@@H]1CC(=O)N(CCO)Cc1ccccc1
 : nt	2	-6.2	nt	nt	0.5	-1.3	nt
COc1ccc(N)cc1-n1c(C)ccc1C
 : -17	0	9.8	9.1	7%	1.9	3.8	18
CCN(CC)CCNC(=O)c1ccc(NC(=O)c2cccc(S(=O)(=O)N3c4ccccc4CC3C)c2)cc1 (stereo not drawn)
 : 31	-5	31*	1.2	nt	0.0	0.1	10
CCc1cc(Cn2nc(-c3ccccc3)cc2C(=O)NCc2ccc(C)cc2)on1
 : 6	-2	0.8	?	nt	-0.2	0.7	2
CC(=O)c1sc(NC(=O)c2ccc(F)cc2)nc1-c1ccccc1
 : 6	5	-3.9	2.1	-6%	-0.6	-0.3	18
CCCc1cc(=O)oc2cc(OCC(=O)NCCCn3ccnc3)c(Cl)cc12
 : 1	-3	-0.7	-0.8	nt	1.2	2.6	-4
CC(C)n1nc(C(=O)Nc2nc3ccc(S(C)(=O)=O)cc3s2)c2ccccc2c1=O
 : -12	8	nt	-0.9	?	?	3.1	-5
CCCCC(=O)Nc1ccc(N2CCN(C(=O)CC)CC2)cc1
 : 0	-3	nt	7.9	6%	1.1	0.4	24
O=C(NCc1ccco1)/C(=C\c1ccco1)NC(=O)c1ccco1
 : -25	nt	3.7	-0.2	31%	nt	nt	-8
O=C(Nc1ccccc1N1CCN(C(=O)c2ccc(Cl)cc2)CC1)c1ccc([N+](=O)[O-])o1
 : 62*	58	nt	0.3	nt	-0.7	2.1	-4
CSc1ncc(C(C)=O)c(C)n1
 : -29	-4	-1.5	-2.5	-4%	-1.6	-1.9	-7
Cc1cc(C)c2nc(SC3CCOC3=O)cc(C)c2c1 (stereo not drawn)
 : -21	-5	-2.4	-2.3	29%	0.3	-3.8	2
COc1ccc(/C=C/C(=O)Nc2nc(C)cc(C)n2)cc1OC
 : -2	4	nt	-2.1	7%	1.1	-0.4	-4
COc1ccccc1C(=O)C1CCCN(C(=O)c2ccc3c(c2)OCCO3)C1 (stereo not drawn)
 : 0	-13	0.8	-0.8	nt	0.5	-12	0
Cc1ccc(-c2cc(C(=O)Nc3c(C)n(C)n(-c4ccccc4)c3=O)[nH]n2)c(O)c1C
 : -10	4	-4.6	1.4	12%	0.2	2.0	-1
Cc1ccccc1C(=O)NCCCNC(=O)c1ccccc1C
 : 4	nt	-6.6	-2.1	nt	1.2	-3.5	7
CC(OC(=O)c1cnccn1)C(=O)c1ccccc1 (stereo not drawn)
 : -16	nt	-0.6	5.3	3%	0.7	-3.0	-4
Cc1ccc(N2CCN(c3cc(C)nc4nc(C)nn34)CC2)c(C)c1
 : 9	nt	0.1	1.5	-5%	1.7	-2.5	2
CC(C)n1c(O)c(N=NC(=O)CNC(=O)Cc2ccc(Cl)cc2)c2ccccc21
 : 14	5	8.0	4.0	nt	1.0	-6.3	7
Cc1ccc(-c2nn(CCC(=O)NN3CCOCC3)c(=O)c3ccccc23)cc1
 : 0	-3	-1.3	-1.0	-2%	1.2	1.6	4
COc1ccc(C(CC(=O)O)NC(=O)c2cc3cc(Br)ccc3oc2=O)cc1OC (stereo not drawn)
 : 2	nt	-1.9	-4.0	6%	0.0	1.9	0
Cc1cccc(C)c1NS(=O)(=O)c1cc2c3c(c1)CC(=O)N3CCC2
 : 2	-6	2.7	-7.8	-1%	0.8	0.4	-16

The list goes on:
Below each SMILES: T cruzi repl	Beta cell apopt	MLL AF4-AF9 inh	RanGTP-Imp inh	Vif A3G	Bfl-1 A1 inh	LANA-H2B inh	Calb FLC
COCC(C)n1c(SCC(=O)N(C)C2CCS(=O)(=O)C2)nc2ccccc2c1=O (stereo not drawn)
 : 3	-5	-1.0	1.5	-10%	-0.3	0.1	-3
CCOc1ncccc1C(=O)Nc1cccc(S(=O)(=O)NC2=NCCC2)c1
 : nt	10	-0.3	nt	-4%	0.6	3.0	nt
COc1ccc(N2C(=O)CC(N3CCN(c4cccc(Cl)c4)CC3)C2=O)cc1 (stereo not drawn)
 : ?	-4	-1.7	-1.2	3%	-0.2	-1.0	-5
CCCCCCCCCCNC(=O)C(=O)Nc1ccccn1
 : 12	-1	nt	2.2	4%	0.5	-2.7	5
CCn1cc(/C=C(\NC(=O)c2ccccc2Cl)C(=O)N2CCN(C)CC2)c2ccccc21
 : -8	nt	3.6	-0.1	nt	nt	nt	10
COc1ccc(-c2nnc(N(C)C(=O)C3CCCO3)s2)cc1 (stereo not drawn)
 : -10	-4	nt	4.1	3%	-3.0	-3.3	4
O=C(O)CSc1nc2c(c(C(F)(F)F)n1)CCCC2
 : 4&-9	-1&-3	0.0&-1.1	5.1&-5.7	6%&-2%	-0.8&0.9	3.4&0.2	-2&-8
CS(=O)(=O)N(CC(=O)N1CCOCC1)c1ccc2c(c1)OCO2
 : -14	-3	nt	1.1	0%	0.1	-6.3	-4

Screens (PubChem)
